Bioassay records as filed in PubChem.
GIRK2 activ – GIRK2 channel activation. P48051. HEK293-GIRK2 thallium flux, Thallos fluorescence. calls only for hits at 25 µM. 63,000 compounds, 0.05% hits;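 active means among the strongest 0.2% of first-round signals and kept after retests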;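 further: first round at about 10 µM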
Target sequence (P48051 whole entry, looked up): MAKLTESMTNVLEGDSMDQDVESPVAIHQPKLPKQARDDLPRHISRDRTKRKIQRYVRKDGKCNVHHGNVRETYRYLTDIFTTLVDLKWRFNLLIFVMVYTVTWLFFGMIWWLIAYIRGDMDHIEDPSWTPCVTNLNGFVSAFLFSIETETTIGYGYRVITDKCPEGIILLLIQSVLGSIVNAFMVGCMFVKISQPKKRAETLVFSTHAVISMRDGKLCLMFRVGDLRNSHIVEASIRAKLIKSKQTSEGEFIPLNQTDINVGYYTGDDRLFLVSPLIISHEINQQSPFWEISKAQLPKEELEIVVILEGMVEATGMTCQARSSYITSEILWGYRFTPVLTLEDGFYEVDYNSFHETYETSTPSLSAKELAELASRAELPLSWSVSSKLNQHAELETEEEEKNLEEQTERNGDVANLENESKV
Calls only; i = inactive. A portion of the library; rates above refer to the full screens.

item | compound | GIRK2 activ
1 | Cc1ccc(C)c(S(=O)(=O)NCc2ccc(C(=O)Nc3ccc4c(c3)OCCO4)cc2)c1 | i
2 | O=C(CCS(=O)(=O)c1ccccc1)NCC#CCOc1ccc2c(c1)OCO2 | i
3 | COc1ccc(C2NC(=O)NC(C)=C2C(=O)OC(C)C)cc1OC (centres undefined) | i
4 | O=c1ccc(-c2nc(-c3ccccc3Cl)no2)cn1Cc1noc(C2CC2)n1 | i
5 | O=C(NC1CCCC1)c1nnn(-c2ccc(NS(=O)(=O)/C=C/c3ccccc3)cc2)n1 | i
6 | CC(=O)COc1ccc2c(c1)O/C(=C\C1=Cc3ccccc3OC1C)C2=O (centres undefined) | i
7 | Cc1ccccc1-c1cc(C(=O)N2CCC(NC(=O)c3ccc(C#N)cc3)CC2)[nH]n1 | i
8 | COCC(C)(O)CNC(=O)C(=O)NCCc1ccccc1 (centres undefined) | i
9 | O=S(=O)(c1ccc2c(c1)OCCO2)N1CCC2(CC1)OCCS2 | i
10 | COc1ccc(NC(=O)c2ccc(-c3ccccc3)cc2)cc1N1CCCC1=O | i

6 entries from above, ordered by SMILES length, ascending:
item | compound | GIRK2 activ
9 | O=S(=O)(c1ccc2c(c1)OCCO2)N1CCC2(CC1)OCCS2 | i
2 | O=C(CCS(=O)(=O)c1ccccc1)NCC#CCOc1ccc2c(c1)OCO2 | i
6 | CC(=O)COc1ccc2c(c1)O/C(=C\C1=Cc3ccccc3OC1C)C2=O (centres undefined) | i
4 | O=c1ccc(-c2nc(-c3ccccc3Cl)no2)cn1Cc1noc(C2CC2)n1 | i
7 | Cc1ccccc1-c1cc(C(=O)N2CCC(NC(=O)c3ccc(C#N)cc3)CC2)[nH]n1 | i
1 | Cc1ccc(C)c(S(=O)(=O)NCc2ccc(C(=O)Nc3ccc4c(c3)OCCO4)cc2)c1 | i

Following part:
item | compound | GIRK2 activ
11 | CC(C)(C)C(=O)Oc1ccc2cc(-c3nc4ccccc4s3)c(=O)oc2c1 | i
12 | COc1ccccc1-c1cc2c(SCC(=O)Nc3c(C)cccc3C)nccn2n1 | i
13 | Cc1cc(NC(=O)C(=O)NCC2CCN(Cc3ccccc3)CC2)no1 | i
14 | COCC1OC(OC2OC(=O)C(C(O)c3ccccc3)=C2c2ccccc2)C(NC(C)=O)C(O)C1O (centres undefined) | i
15 | O=S(=O)(NCCOc1cccc(C(F)(F)F)c1)c1cc(F)ccc1F | i
16 | CC(C)(C)C(O)CCNC(=O)c1cnc2ccccc2n1 (centres undefined) | i
17 | COc1ccccc1OCCNC(=O)c1[nH]c2ccccc2c1NC(=O)c1ccc(Cl)cc1 | i
18 | COC(=O)c1ccc(NC(=O)C(=O)NCC2CCN(C(=O)c3ccoc3)CC2)cc1 | i
19 | O=C(CSc1nc2c(-c3ccccc3)c[nH]c2c(=O)n1C1CC1)Nc1ccc2c(c1)OCO2 | i
20 | Cc1ccc(C(=O)NC(C(=O)N2CCN(C)CC2)C23CC4CC(CC(C4)C2)C3)cc1 (centres undefined) | i

Among those listed so far, 3 contain a halogen:
item | compound | GIRK2 activ
4 | O=c1ccc(-c2nc(-c3ccccc3Cl)no2)cn1Cc1noc(C2CC2)n1 | i
15 | O=S(=O)(NCCOc1cccc(C(F)(F)F)c1)c1cc(F)ccc1F | i
17 | COc1ccccc1OCCNC(=O)c1[nH]c2ccccc2c1NC(=O)c1ccc(Cl)cc1 | i

Going on with the list:
item | compound | GIRK2 activ
21 | CCOc1ccc(-c2noc(-c3nnn(-c4ccc(F)c(Cl)c4)c3N)n2)cc1 | i
22 | CC(=O)N1CCc2c(sc3nc(SCC(=O)N4CCCCCC4)n(-c4ccccc4)c(=O)c23)C1 | i
23 | CC(CCC1(C)C(C)CCC2(C)C(C(=O)O)=CC(=O)CC21)CC(=O)O (centres undefined) | i
24 | CCCCCNC(=O)c1nnn(-c2ccccc2)c1-c1ccncc1 | i
25 | O=C(c1c(F)cccc1F)N1CCN(CCn2ccnc2)CC1 | i
26 | N#Cc1ccc(NC(=O)c2cc(S(=O)(=O)N3CCOCC3)ccc2O)cc1 | i
27 | CCOC(=O)N1CCN(C(=O)CN2CCN(c3ccc(F)cc3)C2=O)CC1 | i
28 | OC(COCCC12CC3CC(CC(C3)C1)C2)CN1CCN(c2cccc(C(F)(F)F)c2)CC1 (centres undefined) | i
29 | Cc1ccc(CNC(=O)c2ccc(-n3ccnc3SCC(=O)Nc3ccc(F)cc3F)cc2)o1 | i
30 | O=C(Nc1cnc(-n2ccnc2)nc1)c1ccc(Br)o1 | i
31 | COC(=O)c1sccc1S(=O)(=O)N1CCC(c2nnc(-c3ccco3)s2)CC1 | i
32 | CCOC(=O)C1CCN(C(=O)c2nnn(-c3ccc(F)cc3)n2)CC1 | i
33 | O=C(NC1CCN(c2ccc(-c3cccc(F)c3)nn2)CC1)c1ccncc1 | i
34 | O=C(c1ccc(F)c(F)c1)N1CCC(CSCc2ccco2)CC1 | i
35 | COCCN(Cc1ccsc1)C(=O)c1cc(C)oc1C | i
36 | O=c1c2oc3ccccc3c2[nH]c(=S)n1Cc1ccccc1 | i
37 | Cc1ccc(S(=O)(=O)NC(C)C)c(C)c1N(C)S(=O)(=O)c1ccccc1 | i
38 | COCCNC(=O)NCCN1CCN(c2ccccc2OC)CC1 | i
39 | COc1ccccc1NC(=O)CC1C(=O)Nc2c(C)c(-c3ccc(F)cc3)nn21 (centres undefined) | i
40 | Cc1cc(C)c(S(=O)(=O)NCCCC(=O)O)cc1N(C)S(=O)(=O)c1ccc(F)cc1 | i
41 | Cc1nc(N2CCN(C(=O)c3cccc(Cl)c3)CC2)cc(-n2cccc2)n1 | i
42 | N#C/C(C(=O)Nc1cccc(Cl)c1)=C1/SC(Cc2ccc(F)cc2)C(=O)N1c1ccccc1 (centres undefined) | i
43 | CCOc1ccc(CC(=O)NCC2CC(=O)N(c3ccc(Cl)cc3)C2)cc1 (centres undefined) | i
44 | COCC(=O)N1CCCc2ccc(NC(=O)C3CC=CCC3)cc21 (centres undefined) | i
45 | CCCn1cc(-c2nc(-c3cccs3)no2)c(=O)c2cc(F)ccc21 | i
46 | Cc1cc(NCCN2CCOCC2)n2nc(C)c(-c3ccccc3)c2n1 | i
47 | CCNc1oc(-c2ccc(COc3ccc(C)cc3)o2)nc1C#N | i
48 | NC(=O)c1ccc(NC(=O)c2csc(Nc3ccc(OC(F)F)cc3)n2)cc1 | i
49 | O=C(Nc1nccs1)c1cc2n(n1)CCCO2 | i
50 | O=C(CN1CCC(COCc2ccc(Cl)cc2)CC1)NC1CC1 | i
51 | CCC(CC)C(=O)Nc1cc(C2CC2)nn1-c1nc(-c2ccccc2)cc(=O)[nH]1 | i
52 | Cn1cc(C(=O)Nc2nc3ccc(S(C)(=O)=O)cc3s2)nn1 | i
53 | COc1cc[nH]c1/C=C1\C(=O)Nc2ccc(F)c(I)c21 | i
54 | CC(=O)c1ccc(NC(=O)CN2CCC(Cn3c(C(F)(F)F)nc4ccccc43)CC2)cc1 | i
55 | O=C(CSc1nc2ccccc2o1)NCCn1ncccc1=O | i
56 | COC(=O)c1ccc2c(=O)n3nc(Nc4ccc(C)c(C)c4)sc3nc2c1 | i
57 | COc1ccc(-n2nncc2SCC(=O)N(c2ccccc2)C(C)C)cc1 | i
58 | O=C(c1ccccn1)N1CCN(c2ccc3nnc(C4CC4)n3n2)CC1 | i
59 | O=C(Nc1nn[nH]n1)c1cccc(S(=O)(=O)N2CCCC2)c1 | i
60 | COc1ccc(Cl)cc1C(=O)N1CCN(c2ccc3nnc(C4CC4)n3n2)CC1 | i
61 | COc1ccc(N2CC(C(=O)Nc3onc4c3CSC4)CC2=O)cc1 (centres undefined) | i
62 | COc1ccc(CNC(=O)Nc2nc(-c3ccccn3)cs2)cc1 | i
63 | O=C(Cc1noc2ccccc12)N1CCC(Oc2nc3ccccc3s2)CC1 | i
64 | CCn1cc(-c2ccnc3[nH]ccc23)c(-c2cccc(NC(=O)Nc3ccc(OCc4ccccc4)cc3)c2)n1 | i
65 | O=C(Nc1ccc2c(c1)OCO2)c1cn(-c2cc(N3CCCCC3)ncn2)cn1 | i
66 | CN(C)c1nc2c(c(=O)n(C)c(=O)n2C)n1Cc1ccccc1Cl | i
67 | COc1cccc(C(=O)Nc2nc(-c3cc4ccccc4o3)cs2)c1OC | i
68 | COc1ccc(C(=O)N2CCN(c3oc(-c4ccc(OC)cc4)nc3C#N)CC2)cc1 | i
69 | Cc1cc(C)c(NC(=O)CSc2nccn2-c2cccc(C(=O)NCc3ccco3)c2)c(C)c1 | i
70 | COc1ccc(-c2cn3c(C(=O)Nc4ccc5c(c4)OCCO5)csc3n2)cc1 | i

Next section
item | compound | GIRK2 activ
71 | O=C(c1ccco1)N1CCC(Oc2nc3ccc(F)cc3s2)CC1 | i
72 | O=C(CNC(=O)C1CCCCC1)Nc1ccc(S(=O)(=O)Nc2ccccc2Cl)cc1 | i
73 | COc1cc(OC)c(OC)cc1/C=C1\Oc2cc(OCC(=O)O)ccc2C1=O | i
74 | CCCCCCOC(=O)C1=C(C)NC(=O)NC1c1ccccc1OCC (centres undefined) | i
75 | O=C(Nc1c(C(=O)c2ccc3c(c2)OCCO3)oc2ccccc12)c1cccs1 | i
76 | COc1cccc(NC(=O)Cn2nc3c(Oc4ccccc4)nccn3c2=O)c1 | i
77 | O=C(NCCc1ccncc1)c1cnn(-c2ccccc2)n1 | i
78 | COc1cccc2cc(C(=O)N(Cc3ccsc3)CC(F)(F)F)oc12 | i
79 | COc1ccc(CC(=O)NCCNc2cc(Nc3cc(C)ccn3)ncn2)cc1 | i
80 | CCOC(=O)N1CCN(c2nc3ccccc3nc2S(=O)(=O)Cc2ccc(Cl)cc2)CC1 | i
81 | COC(=O)c1ccc(C2c3c(oc4ccccc4c3=O)C(=O)N2c2cc(C)on2)cc1 (centres undefined) | i
82 | Cc1cc2c(=O)n(Cc3ccco3)c(SCC(=O)NC3CCCC3)nc2s1 | i
83 | COc1cccc(C(=O)N(CCCn2ccnc2)c2nc3c(C)cccc3s2)c1OC | i
84 | O=C(NC(C(=O)N1CCOCC1)C12CC3CC(CC(C3)C1)C2)C1CCCCC1 (centres undefined) | i
85 | O=c1cc(Cn2nc3ccc(-c4ccc(Cl)cc4)nn3c2=O)nc2ccccn12 | i
86 | COc1cc2c(cc1OC)CN(c1nc3c(OC)ccc(Cl)c3s1)CC2 | i
87 | O=C(CCC(=O)N1CC(c2nc(-c3cccs3)no2)C1)c1ccccc1 | i
88 | Cn1cccc(C(=O)NCC2CCN(c3ccccn3)CC2)c1=O | i
89 | O=C(Nc1nccs1)c1ccc(Cl)c(S(=O)(=O)N2CCCC2)c1 | i
90 | CC(C)(C)OC(=O)COc1ccc2c(c1)O/C(=C\c1ccc3c(c1)OCO3)C2=O | i
91 | Cn1cnnc1SCc1cc(=O)c(OCC(=O)Nc2ccc([N+](=O)[O-])cc2)co1 | i
92 | CCCNS(=O)(=O)CCNC(=O)c1ccc2c(c1)OCO2 | i
93 | CC(C)(C)C(O)CCNC(=O)CCSc1ccccc1 (centres undefined) | i
94 | COc1ccc(-c2nc(CCNS(=O)(=O)c3cc(F)ccc3F)cs2)cc1 | i
95 | O=S(=O)(Cc1ccc(C(F)(F)F)cc1)N(Cc1ccsc1)Cc1ccco1 | i
96 | CCOC(=O)Cc1n[nH]c(COc2ccc(Cl)cc2)n1 | i
97 | Cc1ccc(CNC(=O)Cn2c(=O)nc(-c3ccccc3)c3ccccc32)cc1 | i
98 | Cn1cccc1CN(Cc1cccs1)S(=O)(=O)c1cccc(C(F)(F)F)c1 | i
99 | COc1ccc(NC(=O)Cc2c(C)nc(SCc3ccccc3F)[nH]c2=O)cc1Cl | i
100 | O=C1CCc2cc(S(=O)(=O)N3CCN(Cc4ccccc4)CC3)cc3c2N1CCC3 | i
101 | Cc1nnsc1C(=O)NCC(O)c1ccc2c(c1)CCO2 (centres undefined) | i
102 | COc1ccc(-c2nnc(CC(=O)N3CCN(c4ccc(C(C)=O)cc4)CC3)o2)cc1 | i
103 | O=C(Nc1nc2ccccc2[nH]1)C1CCCN(c2ccc(-c3ccccc3)nn2)C1 (centres undefined) | i
104 | COC(=O)C1CCN(C(=O)Cc2csc(Nc3nc(C)cc(C)n3)n2)CC1 | i
105 | O=C(Nc1nc(-c2ccccc2)ns1)c1ccccc1 | i
106 | COc1ccc(CCNC(=O)NCc2ccsc2)cc1 | i
107 | O=C(Oc1ccc2c(=O)c(-c3ccc(Cl)cc3)c(C(F)(F)F)oc2c1)C1CC1 | i
108 | COc1ccccc1N1CCN(CCNC(=O)c2ccc(Br)o2)CC1 | i
109 | CCc1nnc(NC(=O)c2cccc(S(=O)(=O)N3CCOCC3)c2)s1 | i
110 | Cc1cc(OCCCC(=O)N2CCCCC2)cc(C)c1Cl | i
111 | CNS(=O)(=O)c1ccc(C(=O)N2CCN(C)CC2)o1 | i
112 | Cc1ccc(C)c(S(=O)(=O)Nc2ccc(C(=O)NCc3ccco3)cc2)c1 | i
113 | COc1ccc(NC(=O)CSc2nc3c(-c4ccccc4)c[nH]c3c(=O)n2C(C)C)cc1 | i
114 | O=C1OC2CC1N(C(=O)Cn1cnc3ccccc3c1=O)C2 (centres undefined) | i
115 | CCOC(=O)c1cnn2ccc(NC(=O)Cn3c(=O)oc4ccccc43)cc12 | i
116 | c1nc(NCc2ccc3c(c2)OCO3)c2cn[nH]c2n1 | i
117 | COc1ccc(-c2csc(CN3CCN(C(=O)c4cccc5ccccc45)CC3)n2)cc1 | i
118 | O=C(Nc1cc(-n2ccc3ccccc32)ncn1)c1ccccc1Cl | i
119 | COc1ccc(Cn2nc3c(S(=O)(=O)N4CCOCC4)cccn3c2=O)cc1F | i
120 | COc1ccc(C(=O)Nc2nnc(-c3cc(OC)c(OC)c(OC)c3)o2)cc1 | i

(continued)
item | compound | GIRK2 activ
121 | CCNC(=O)c1nc(C(=O)NCc2ccc(F)c(Cl)c2)cs1 | i
122 | CNC(=O)C(=O)NCCC1CCCCN1S(=O)(=O)c1ccc(F)c(C)c1 (centres undefined) | i
123 | Cc1cccc(NC(=O)c2ccc(N3C(=O)c4ccccc4C3=O)cc2)n1 | i
124 | COc1cccc(/C=C2\Oc3c(ccc4c3CN(Cc3cc(OC)c(OC)c(OC)c3)CO4)C2=O)c1 | i
125 | COC(=O)c1sccc1NC(=O)CN1CCCN(Cc2cc(C)ccc2C)S1(=O)=O | i
126 | COCCn1nnn(-c2ccc(NC(=O)c3ccco3)cc2)c1=O | i
127 | O/N=C(/Cc1ccc(Cl)cc1)c1ccc(O)cc1O | i
128 | Cc1noc(-c2ccc(N3CCCC(C(=O)NCc4nc5ccccc5n4C)C3)nc2)n1 (centres undefined) | i
129 | Cc1cc(NC(=O)CN2C(=O)CCC2=O)n(-c2nc3c(F)cccc3s2)n1 | i
